Bioassay records deposited in PubChem BioAssay by National Center for Advancing Translational Sciences (NCATS).
miR-21 reporter: qHTS Assay for Modulators of miRNAs and/orActivators of miR-21. HeLa miR-21 FLuc reporter, luciferase, 48 h. Potency, µM (titrated, usually from 38.3 µM), inactives show at the top dose reporter change, positive = more light. 340,000 tested, under 10 active; active = well fitted rising curve with a large enough effect; inconclusive = small, poorly fitted or top-dose-only effect; inactive = no such curve, though single readings can be large or run the other way;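 also: % of control where 0% means no effect; miR-21 action dims this reporter so a rising signal means less miR-21 action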
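Compounds were titrated across several concentrations (up to approximately 40 uM) and incubated 48 hours with HeLa miR-21-FLuc reporter cells (miR-21 target sequence downstream of FLuc, endogenous miR-21). Readout was firefly luciferase luminescence after lytic detection reagent.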
GLA inh pH 4.5: qHTS Assay for Inhibitors of Human alpha-Galactosidase at pH 4.5; purified enzyme, 4-MU-alpha-Gal fluorescence, pH 4.5; activity change, negative = inhibition, % at 105 µM; 230,000 tested, under 10 active; inconclusive = small, poorly fitted or top-dose-only inhibition, or a rising curve; inactive = flat fitted curve, though single readings scatter; no compound was filed as active;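 also: 0% = full activity with enzyme and -100% = basal without enzyme; dose as in the result columns while the protocol names 77 µM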
Target sequence (P06280 whole entry, looked up): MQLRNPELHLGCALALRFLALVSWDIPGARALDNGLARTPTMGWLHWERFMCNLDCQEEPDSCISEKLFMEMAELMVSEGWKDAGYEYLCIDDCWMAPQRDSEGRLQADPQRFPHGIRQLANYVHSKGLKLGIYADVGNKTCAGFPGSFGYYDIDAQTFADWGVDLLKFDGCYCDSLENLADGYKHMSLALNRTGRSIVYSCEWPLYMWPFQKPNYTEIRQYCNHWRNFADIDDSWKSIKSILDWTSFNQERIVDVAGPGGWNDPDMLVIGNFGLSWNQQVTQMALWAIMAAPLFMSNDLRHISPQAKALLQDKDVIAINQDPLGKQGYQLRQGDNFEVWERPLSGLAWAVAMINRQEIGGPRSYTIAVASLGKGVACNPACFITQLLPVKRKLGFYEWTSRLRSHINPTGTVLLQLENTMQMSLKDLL
Rango release inh: qHTS Assay for Inhibitors of RanGTP induced Rango (Ran-regulated importin-beta cargo) - Importin beta complex dissociation | 0.071% of 340,000 active | Snurportin-1 (Homo sapiens) + GTP-binding nuclear protein Ran (Homo sapiens) + Importin … | Biochemical FRET Rango-importin beta, RanGTP-induced dissociation | AID 540253, 2011 | Potency, µM (doses to about 46.1 µM), for inactives: at the top dose activity change, negative = inhibition; active means falling FRET ratio curve, often poorly fitted, with flat reads before Ran was added; inconclusive means other falling curves, or compound fluorescence or quenching; inactive means flat or rising ratio curve;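 also: potency is read from the fitted curve at half-maximal effect; % of control where 0% means no effect; nearly all actives have a fitted effect of over 45% in size; -100% = wells without RanGTP and RCC1; the record marks most hits as doubtful in a second field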
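Quantitative HTS using a FRET biosensor: 0.1 uM Rango, 0.25 uM importin beta, 0.6 uM Ran, 2 mM GTP, 0.2 uM RCC1 final, PBS with DTT, Tween-20 and BSA. Post-read taken 45 min after Ran addition.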
Rango-impB inh: qHTS Assay for Inhibitors of Rango (Ran-regulated importin-beta cargo) - Importin beta complex formation; Importin subunit beta-1 (Homo sapiens), Q14974; Rango CFP/YFP FRET sensor + importin beta, 45 min; Potency, µM (top dose mostly 92.2 µM), for the others: top-dose inhibition of complex formation; 0.031% of 340,000 active; AID 540263, 2011; active = rising FRET ratio curve, often small or poorly fitted; inconclusive = mostly compound fluorescence or quenching in the first reads; inactive = flat curves in all reads;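 also: potency is read from the fitted curve at half-maximal effect; 0% = DMSO wells and 100% = buffer wells lacking importin beta; nearly all actives have a fitted effect of over 15% in size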
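FRET biosensor (snurportin 1 IBB flanked by EYFP and cerulean), 50 nM, with compound 5 min, then 0.125 microM importin beta in PBS, 1 mM DTT, 0.02% Tween-20, 0.1% BSA. CFP/YFP ratio read after 45 min at room temperature; pre-read flags interference.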
* marks the source's active call; other numbers are inactive results; ? = inconclusive; nt = no result given. This is a subset; rates above refer to the full screens.

SMILES	miR-21 reporter	GLA inh pH 4.5	Rango release inh	Rango-impB inh
CCOC(=O)C1C(=O)NC(c2ccccc2)=NC1c1ccc(C(C)C)cc1 (stereo unspecified)	-2%	2	17%	-0.9%
Cc1ccc2nc(C(=O)N3CCc4c([nH]c5ccccc45)C3c3ccccn3)cn2c1 (stereo unspecified)	2%	-10	14%	-3.2%
Cc1cccc(C(=O)N/C(=C\c2ccco2)C(=O)N2CCCC2)c1	-5%	nt	-4%	-2.9%
CC(=O)Nc1cccc(-c2nnc3c4ccccc4c(C)nn23)c1	-23%	3	nt	nt
CCOC(=O)N1CCC(NC(=O)c2cccnc2SC)CC1	-4%	-7	-2%	-1.4%
CCNC(=O)NC(=O)C(C)OC(=O)CCS(=O)(=O)c1ccc(C)cc1 (stereo unspecified)	1%	0	-6%	-0.1%
c1ccc(-c2csc3ncn4cnnc4c23)cc1	-1%	5	2%	0.0%
CC(=O)N1c2ccc(S(=O)(=O)NCCc3ccccc3)cc2CC1C (stereo unspecified)	13%	nt	-21%	-0.9%
NC(=O)C1CCN(c2oc(-c3ccccc3)nc2S(=O)(=O)c2ccc(Br)cc2)CC1	3%	nt	22%	1.7%
CC1=C(CC(=O)NCC(=O)NCC(=O)O)c2cc(F)ccc2/C1=C/c1ccc(S(C)=O)cc1 (stereo unspecified)	3%	nt	-2%	5.2%
CC(C(=O)Nc1cccc(C#N)c1)N(C)CCOc1ccccc1 (stereo unspecified)	0%	nt	9%	-1.0%
Cc1ccc(-c2csc(C(C#N)=C3CCCC3)n2)cc1	-22%	11	-1%	0.6%
COc1cc2c(c3oc(=O)cc(CC(=O)O)c13)CCC(C)(C)O2	-30%	nt	-4%	0.2%
CN(Cc1ccc(F)cc1)C(=O)c1ccc(NC(=O)CC2SC(N3CCCC3)=NC2=O)cc1 (stereo unspecified)	nt	nt	-8%	1.2%
Cc1ccc(OCC(=O)NC(=S)Nc2ccccn2)c(Br)c1	22%	nt	-10%	-1.8%
O=C(NCc1ccc2c(c1)OCO2)Nc1ccc2ccccc2c1	-6%	0	2%	0.8%
COc1ccc(CNC(=O)C2CC=CCC2C(=O)O)cc1OC (stereo unspecified)	-1%	-15	-4%	-0.3%
COc1cc(/C=C2\SC(N)=NC2=O)cc(Br)c1O	0%	nt	?	?
CC(C)Cc1nc2sc3c(=O)[nH]cnc3c2c2c1CCC2	-3%	-9	-12%	0.5%
COc1ccc(/C=C/C(=O)Nc2cc(C(F)(F)F)ccc2Cl)cc1OC	-4%	-1	-8%	-1.2%
CSc1nc(N2CCOCC2)cc(N2CCOCC2)n1	-9%	-4	5%	-3.1%
O=C(COC(=O)c1ccc(O)cc1)NCC1CCCO1 (stereo unspecified)	3%	2	5%	2.8%
O=C1/C(=C/c2ccc(O)cc2)COc2ccccc21	6%	nt	-13%	?
CCn1nnc(-c2ccccc2NC(=O)c2cnccn2)n1	nt	nt	2%	-1.9%
O=C(NCCc1ccccc1)C1CC(=O)N(C2CCCCC2)C1 (stereo unspecified)	-5%	nt	0%	-1.3%
COc1ccccc1CNS(=O)(=O)CCNC(=O)c1ccccc1	nt	nt	-11%	1.9%
O=C(Cc1ccccc1)NCC(=O)Nc1ccc(OC(F)(F)F)cc1	9%	nt	0%	-1.6%
CCN1CCN(S(=O)(=O)c2ccc(Cl)c(C(=O)Oc3ccc(CC(=O)OC)cc3)c2)CC1	nt	nt	8%	-0.8%
O=C(c1cccc(-n2cnnn2)c1)N1CCOCC1	-3%	0	-2%	0.2%
O=C(Cn1sc2ccccc2c1=O)NC12CC3CC(CC(C3)C1)C2	17%	4	2%	0.6%
O=C(O)CCN1CCN(S(=O)(=O)c2ccc3ccccc3c2)CC1	-4%	nt	6%	3.9%
CCCNC(=O)N1CCN(C(=O)NCCC)CC1	4%	2	10%	0.5%
CCc1[nH]nc(C(=O)N/N=C/c2ccncc2)c1C	-49%	nt	0%	0.9%
CCOc1ccc2nc(N3CCCC(C(=O)NCCCN4CCCCC4)C3)sc2c1 (stereo unspecified)	-38%	nt	-6%	-3.8%
CCn1c(/C=N/NC(=O)c2ccc(OC)cc2)nc2ccccc21	6%	-2	-1%	1.7%
C=CCC[C@H](Cc1ccc(F)cc1)C(=O)OC[C@@H](C)NC(=O)[C@H](CC=C)CC(=O)N(CCO)Cc1ccccc1	nt	nt	2%	-1.1%
O=C(N[C@H]1C/C=C\C[C@H](CC(=O)N(CCO)Cc2ccccc2)C(=O)NC[C@H](c2ccccc2)OC1=O)OCC1c2ccccc2-c2ccccc21	nt	nt	-16%	0.2%
CCCCCC(=O)Nc1ccc(N2CCN(CC)CC2)c(Cl)c1	-56%	6	19%	7.1%
Cc1cc(C(=O)CCC(=O)Nc2ncccc2C)c(C)s1	nt	nt	2%	3.3%
CCOC(=O)C1CCN(C(=O)CCc2ccccc2)CC1	-1%	-6	21%	-3.9%

2 successive entries already listed, quoted:
SMILES	miR-21 reporter	GLA inh pH 4.5	Rango release inh	Rango-impB inh
COc1ccc(/C=C/C(=O)Nc2cc(C(F)(F)F)ccc2Cl)cc1OC	-4%	-1	-8%	-1.2%
CSc1nc(N2CCOCC2)cc(N2CCOCC2)n1	-9%	-4	5%	-3.1%

(cont.)
SMILES	miR-21 reporter	GLA inh pH 4.5	Rango release inh	Rango-impB inh
O=C1CSC(c2cccnc2)N1Cc1cccnc1 (stereo unspecified)	-2%	-14	34%	0.1%
CCC(C(=O)NCCCN1CCCCCC1)n1nc(C)c2sc3ccccc3c2c1=O (stereo unspecified)	0%	nt	12%	-2.2%
O=c1[nH]c(Cc2ccccn2)nc2scc(-c3ccc(Cl)cc3)c12	9%	?	-10%	-3.9%
Cc1cccc(N(C(=O)c2sc(C)nc2C)C(C(=O)NCc2ccco2)c2ccccc2)c1 (stereo unspecified)	-6%	3	9%	6.2%
CCOc1ccc(S(=O)(=O)NCc2cccnc2)cc1C(C)C	7%	nt	-1%	-2.2%
CCN(CC(=O)Nc1ccc(Br)cc1F)CC(=O)NC1CCS(=O)(=O)C1 (stereo unspecified)	nt	nt	13%	3.7%
CC(=O)Nc1ccc(NC(=O)Cc2sc(-c3cccnc3)nc2-c2ccc(C)cc2)cc1	-5%	7	-10%	-0.1%
CCOC(=O)c1sc2ccc(S(=O)(=O)N3CCCCC3)cc2c1N	17%	4	-17%	0.8%
CCN(CC)CCNC(=S)Nc1ccc2nc(N3CCCC3)cc(C)c2c1	19%	3	-11%	-6.2%
CC(=O)c1cccc(NC(=O)CSc2ccc(-c3cccnc3)nn2)c1	nt	nt	-14%	-0.5%
Cn1c(=O)c2[nH]c(-c3ccccc3)c(O)c2n(C)c1=O	-3%	-3	?	?
CC(C)C(=O)Nc1cccc(-c2nc3ccccc3o2)c1	-23%	5	-9%	0.8%
CC1CCN(C(=O)COC(=O)c2cccc(S(=O)(=O)N(C)c3ccccc3)c2)CC1	nt	nt	-3%	-2.8%
Fc1cnc(N2CCN(c3ccccc3)CC2)nc1N1CCN(c2ccccc2)CC1	-10%	8	18%	-0.1%
CC(=O)C1=C(O)C(=O)N(c2ccc(O)cc2)C1c1ccc(Cl)cc1 (stereo unspecified)	-6%	nt	-13%	6.0%
Cc1ccc(-c2cc(C(=O)NCc3cn(C)nc3C)c3cc(Br)ccc3n2)cc1	-17%	-14	2%	1.3%
Cc1cc(N2CCC(C(=O)NC3CC3)CC2)nc(-c2ccccc2)n1	-1%	5	-4%	-0.7%
CCNc1nc(OC)nc(SCC(=O)Nc2ccccc2)n1	12%	10	3%	-0.5%
CCOc1ccc(C(=O)Nc2nnc(C(C)C)s2)cc1OCC	-17%	1	1%	-4.4%
COc1ccc(C(=O)NC(=S)N2CCC(C)CC2)cc1	-21%	3	1%	0.1%

Taken from above:
For Rango release inh, CC(=O)Nc1ccc(NC(=O)Cc2sc(-c3cccnc3)nc2-c2ccc(C)cc2)cc1 has -10%
For Rango-impB inh, CCOC(=O)c1sc2ccc(S(=O)(=O)N3CCCCC3)cc2c1N has 0.8%

The results go on.
SMILES	miR-21 reporter	GLA inh pH 4.5	Rango release inh	Rango-impB inh
O=C(Nc1ccc(F)cc1F)c1noc2c1CCC2	-37%	-4	0%	-0.5%
CCCS(=O)(=O)N1CCC(C(=O)NCCc2ccc(OC)c(OC)c2)CC1	0%	-3	3%	0.7%
COc1ccc2c(Cl)c(C(=O)N/N=C/c3cccnc3)sc2c1	0%	nt	-5%	-1.9%
Cc1c(N(C)S(=O)(=O)c2cc(C(=O)N3CCCC3)ccc2Cl)c(=O)n(-c2ccccc2)n1C	-2%	nt	-7%	-2.3%
O=C(NCC(c1cccnc1)N1CCN(c2ccc(F)cc2)CC1)c1cccc(Cl)c1 (stereo unspecified)	20%	-1	3%	2.1%
COCCNC(=O)Cn1c(=O)oc2cc(S(=O)(=O)N3CC(C)CC(C)C3)ccc21 (stereo unspecified)	3%	nt	4%	5.6%
CCOC(=O)N1CCN(C(=O)COc2cc(C)c(Cl)c(C)c2)CC1	-1%	0	1%	-3.6%
COCCn1c(=O)[nH]c2cc(C(=O)NCc3ccccc3)ccc2c1=O	12%	?	2%	3.4%
CN(C)c1ccc(/C=C/c2nc3ccccc3s2)cc1	17%	5	?	?
COc1cc(N2CCCC2)c(OC)cc1/C=C(/C#N)c1ccc(F)cc1	-8%	-13	?	?
COc1cc(C2NC(=O)NC(c3ccccc3)=C2C(C)=O)cc(Cl)c1OCC(=O)O (stereo unspecified)	0%	-18	-14%	-3.2%
CCN1C(=O)[C@H]2[C@@H](c3ccc(-c4ccccc4)c(OC)c3)N[C@@](CC(C)C)(C(=O)OC)[C@H]2C1=O	nt	nt	9%	-6.5%
N/C(=N\OC(=O)CCCc1ccccc1)c1cccc([N+](=O)[O-])c1	-10%	-3	0%	-1.7%
O/N=C1\CCCc2oc3c(c21)CCCC3	-4%	2	-2%	0.1%
CCN(CC)C(=O)CSc1nc(C)cc(-c2cccs2)c1C#N	-8%	-3	9%	0.7%
C/C(=N\NC(=O)CSCc1cccc(Br)c1)c1ccc([N+](=O)[O-])cc1	-7%	-19	-2%	-0.8%
CCOC(=O)N1CCN(Cc2c(O)ccc3ccccc23)CC1	2%	7	3%	-1.4%
O=C(CC1SCCNC1=O)Nc1ccccc1Cl (stereo unspecified)	-14%	4	?	-2.1%
Cc1nc(SCc2nc3ccc(F)cc3[nH]2)c2oc3ccccc3c2n1	nt	nt	-18%	?
CCOC(=O)c1ccc(NC(=O)N2CCN(c3ccccn3)CC2)cc1	9%	3	-3%	0.0%
Cc1ccc(CNC(=O)C(=O)Nc2nccs2)cc1	-1%	4	-23%	-3.8%
Cc1nc(CS(=O)c2ccccc2)cc(N2CCOCC2)n1 (stereo unspecified)	-7%	-10	1%	1.0%
COC(=O)N/N=C/c1cn(CCOc2cccc(OC)c2)c2ccccc12	-5%	nt	0%	-0.9%
O=C(CCc1nc(-c2ccccc2)no1)NCc1cccnc1	-7%	7	11%	-4.6%
S=C(Nc1ccc(Br)cc1)N1CCN(C2CCCCC2)CC1	-4%	-3	1%	6.4%
c1ccc(Cc2nnc(Sc3ccccc3)c3ccccc23)cc1	12%	-6	0%	-4.2%
CCC(=O)N1CCN(c2ccccc2NC(=O)c2cccc(C)c2)CC1	-4%	-1	-18%	?
O=C(NCc1ccc(Cl)cc1Cl)Nc1ccccc1	nt	nt	-3%	-0.8%
CCCOc1ccc(N2C(=O)CC(NCc3cccs3)C2=O)cc1 (stereo unspecified)	-1%	0	-11%	-1.1%
CCOC(=O)C1CCN(C(=O)CN(c2ccc(Cl)c(C(F)(F)F)c2)S(C)(=O)=O)CC1	-2%	-8	-10%	-3.3%
N=C1S/C(=C\c2ccc(O)cc2)C(=O)N1c1ccc(F)cc1	-4%	-7	-8%	?

Compounds shown so far with two or more sulfur atoms (two):
SMILES	miR-21 reporter	GLA inh pH 4.5	Rango release inh	Rango-impB inh
CCOC(=O)c1sc2ccc(S(=O)(=O)N3CCCCC3)cc2c1N	17%	4	-17%	0.8%
CCN(CC)C(=O)CSc1nc(C)cc(-c2cccs2)c1C#N	-8%	-3	9%	0.7%
